StopGo RLuc: Primary qHTS Assay for Foot and Mouth Disease Virus Antivirals against NCGC Sytravon and CBC Compound Libraries: Renilla Luciferase Signal; HEK cells with a luciferase reporter of 2A StopGo recoding; Potency, µM (top dose mostly 57.5 µM), without a hit: at the top dose signal change, negative = less light; actives 0.32% (n = 120,000); AID 1745857, 2022; active means well fitted falling curve with a large enough effect; inconclusive means small, poorly fitted or top-dose-only effect; inactive means no such curve, though single readings can be large or run the other way; further: nearly all actives have a fitted effect of over 55% in size; overnight with compound
StopGo FLuc: Primary qHTS Assay for Foot and Mouth Disease Virus Antivirals against NCGC Sytravon and CBC Compound Libraries: Firefly Luciferase Signal; AID 1745856, 2022; HEK cells with a luciferase reporter of 2A StopGo recoding; actives 0.23% (n = 120,000); Potency, µM (titrated, usually from 57.5 µM), for the others: at the top dose signal change, negative = less light; active = well fitted falling curve with a large enough effect; inconclusive = small, poorly fitted or top-dose-only effect; inactive = no such curve, though single readings can be large or run the other way; further: nearly all actives have a fitted effect of over 60% in size; overnight with compound
* = called active by the depositor; ? = inconclusive; & = joins results of further samples; [ ] = another dose, or the depositor's remark. On the % scale 0 is the no-effect control and ±100 the full control effect; potency means the concentration at half of the fitted maximal effect. An excerpt (hit frequency here may not be typical).

SMILES	StopGo RLuc	StopGo FLuc
COc1cc(C2CC(=O)N3CN(Cc4ccccc4)CSC3=C2C#N)cc(OC)c1OC (stereo not given)	-10.3%	-12.0%
CC(C)Cn1c(CCNC(=O)c2ccco2)nc2ccccc21	9.8%	0.3%
CCOc1ccccc1/C=C1\NC(=O)NC1=O	22.0%	14.9%
Cc1ccc(-n2ncc3c2NC(=O)CC32C(=O)N(CC(N)=O)c3ccccc32)cc1C (stereo not given)	-3.4%	3.1%
Cc1c(Cl)cccc1NC(=O)c1noc2c1CCCC2	?	86.8%&52.9%[activator]
O=C(c1cccc(S(=O)(=O)Nc2cc(C(F)(F)F)ccc2Cl)c1)N1CCCC1	21.8%	-0.9%
CN(CC(=O)Nc1ccccc1Cl)CC(=O)N(CCC#N)c1ccccc1F	7.8%	16.7%
Cc1nc(SC(C)C(=O)Nc2ccccc2)n(CC(C)C)c1C (stereo not given)	12.4%	14.5%
c1ccc2c(c1)CCCC2NCc1cccc2ccccc12 (stereo not given)	4.9%	0.0%
Cc1cccc(CS(=O)(=O)c2ncc(Cl)c(C(=O)NCc3ccccc3)n2)c1	3.9%	?
COc1ccc(CNC(=O)c2cc3c(=O)[nH]c4ccccc4c3n2C)c(OC)c1	6.7%	9.6%
Cc1cccc(-c2nnc(SCC(=O)N3CCCCC3)o2)c1	8.9%	130.8%[activator]
Cc1c(C)c2cc3c(c(C)c2oc1=O)OCN(CCc1ccc(F)cc1)C3	-5.0%	4.8%
O=C(CCC(=O)OCc1ccccc1Cl)Nc1ccc2c(c1)oc1ccccc12	0.8%	69.0%[activator]
CN[C@H]1C[C@H]2c3[nH]c4cccc(-c5ccccc5)c4c3CCN2C[C@H]1[C@H](C)O	22.7%	32.2%[activator]
CN(C)C(=O)c1cc(Cl)ccc1F	4.9%	31.5%[activator]
COc1ccc(-c2cc3ccc(OS(C)(=O)=O)cc3oc2=O)cc1OC	?	2.1%
Cc1cccc(OCC(=O)Nc2ccc(O)c(-c3nc4ccccc4o3)c2)c1	-1.8%	-8.8%
COc1ccc(Nc2ncnc3onc(-c4ccc(Cl)cc4)c23)cc1Cl	67.2%[activator]	0.0%
O=C(CSc1ncnc2sc3c(c12)CCC3)Nc1ccc(F)cc1	-2.8%	4.4%
CCn1cc(S(=O)(=O)Nc2ccn(Cc3ccccc3F)n2)c(C)n1	28.2%	-3.1%
COc1ccc(-c2cc(C(=O)NCCCN3CCCC3=O)c3ccccc3n2)cc1OC	58.5%[activator]	64.9%[activator]
CCCCn1c(CN2CCCCC2CC)nc2c1c(=O)n(C)c(=O)n2C (stereo not given)	-8.5%	-0.8%
Cc1ccc(C2CCCN2S(=O)(=O)c2ccccc2)cc1 (stereo not given)	0.0%	2.8%
Cc1c(-c2cccs2)nc2ccccc2c1C(=O)O	3.3%	13.5%
Cc1ccc(Nc2nnc(SCC(=O)N3CCCC3)s2)c(C)c1	-7.6%	7.2%
CCCCN(Cc1ccccc1)S(=O)(=O)c1cc(Br)cc2c1N(C(=O)C1CC1)CC2	106.6%[activator]	-4.1%
CC(=O)Nc1ccc2nc(SCc3cccc(Br)c3)sc2c1	1.3%	?
Cc1ccccc1C(=O)NC(=O)Nc1ccc(-n2nc(C(F)(F)F)cc2C(F)(F)F)cc1	2.9%	-4.4%
O=C(O)C(c1c[nH]c2ccc(Cl)cc12)N1CCN(c2nsc3ccccc23)CC1 (stereo not given)	-11.2%	-13.6%

In the list so far, these contain bromine.
SMILES	StopGo RLuc	StopGo FLuc
CCCCN(Cc1ccccc1)S(=O)(=O)c1cc(Br)cc2c1N(C(=O)C1CC1)CC2	106.6%[activator]	-4.1%
CC(=O)Nc1ccc2nc(SCc3cccc(Br)c3)sc2c1	1.3%	?

(listing goes on)
SMILES	StopGo RLuc	StopGo FLuc
N#C/C(=C/c1ccc(OCCOc2ccccc2)cc1)c1ccc(Cl)cc1Cl	0.0%	2.3%
Cc1ccccc1CNC(=O)c1oc2c(c1C)-c1[nH]ncc1CC2	21.9%	-3.0%
CC1C(=O)N2CCCc3cc(S(=O)(=O)NCc4ccccc4Cl)cc1c32 (stereo not given)	51.0%[activator]	5.7%
COC(=O)c1ccccc1NC(=O)c1cc(C)nc2c1c(C)nn2-c1ccc(C)cc1	-9.8%	-8.2%
O=C(Nc1ccc(F)c(F)c1)c1cc(S(=O)(=O)NC2CCCC2)ccc1F	3.1%	?
CCCn1c(=O)n(CCC(=O)Nc2c(C)cccc2C)c2ccccc21	-6.8%	-7.1%
CC(=O)Nc1cccc(NC(=O)c2ccc3ccccc3n2)c1	?	-4.9%
Cc1cc(NC(=O)CCc2ccsc2)ccc1N1CCCC1=O	-4.3%	18.5%
COc1ccc(N(C(=O)COc2ccc(Br)cc2)S(=O)(=O)c2ccc(C)cc2)cc1	58.0%[activator]	13.4%
COc1ccc(N2C(=O)C(CC(=O)Nc3ccc(Cl)cc3)N(Cc3ccc4c(c3)OCO4)C2=O)cc1 (stereo not given)	306.9%[activator]	-11.1%
COc1ccc(/C=N/OCc2ccc(F)cc2Cl)cc1OCc1ccccc1	0.0%	5.0%
COc1ccc(CC(=O)N2CCc3cc(OC)c(OC)cc3C2COc2ccc(OC)cc2)cc1 (stereo not given)	17.1%	-22.2%
CN1CCN(C(c2cccc(Br)c2)c2sc3nc(-c4ccco4)nn3c2O)CC1 (stereo not given)	20.4%	-14.6%
Cc1ccc(C(=O)COC(=O)C2C3CCC(C3)C2C(=O)OCC(=O)c2ccc(C)c(C)c2)cc1C (stereo not given)	0.0%	0.0%
CC1=C(C(=O)OC(C)(C)C)C(c2ccc(Cl)cc2Cl)C(C#N)=C(N)O1 (stereo not given)	15.2%	13.5%
COc1ccc(-c2nnc(SCC(=O)NCc3ccccc3CN3CCOCC3)n2C)cc1	1.3%	1.8%
CCN(CC)CCCNC(=O)c1cn(C)c2ccc(S(=O)(=O)N(C)C3CCCCC3)cc2c1=O	-7.0%	-17.6%
NS(=O)(=O)c1ccc2nc(NC(=O)COc3ccccc3)sc2c1	-2.9%	-18.3%
CCOc1ccc(NC(=O)CC(C)C)c2cccnc12	-10.2%	-7.4%
CCN(CC)c1sc(S(C)(=O)=O)nc1S(=O)(=O)c1ccc(C)cc1	35.4%[activator]	4.2%
Cc1[nH]c2ccccc2c1C(=O)CSc1nnnn1CC(C)C	16.0%	99.2%[activator]
CC(C)(C)N(Cc1ccccc1)C(=O)COC(=O)c1ccc2ccccc2n1	-13.0%	-7.8%
CC(Sc1nc2ccccc2o1)C(=O)NC(=O)NC1CCCCC1 (stereo not given)	5.3%	72.0%[activator]
CCNc1nc2c(c(=O)[nH]c(=O)n2C)n1CCOc1ccccc1	24.2%	34.2%[activator]
CCOC(=O)C(C)Oc1ccc2c(=O)c(-c3ccccc3)c(C(F)(F)F)oc2c1 (stereo not given)	-13.2%	-11.4%
O=C(CCc1ncc(-c2ccc(F)cc2F)o1)Nc1ccccc1Cl	-2.8%	12.4%
COc1cc(/C=C(\C#N)C(N)=C(C#N)C#N)cc(Cl)c1O	4.0%	0.0%
Cc1ccc(S(=O)(=O)N(CC(O)Cn2c3ccccc3c3ccccc32)c2cccc(C(N)=O)c2)cc1 (stereo not given)	65.2%[activator]	3.3%
CCOC(=O)c1ccc(NC(=O)c2nc3ccccc3nc2N2CCCC2)cc1	-8.8%	-0.3%
COc1ccc(CCC2CCN(C(=O)C3CCN(S(=O)(=O)c4ccc(C)cc4C)CC3)CC2)cc1	?	?

Complete entries from above. Order of screens: StopGo RLuc | StopGo FLuc
Cc1c(C)c2cc3c(c(C)c2oc1=O)OCN(CCc1ccc(F)cc1)C3 reads -5.0% | 4.8%
COc1ccc(/C=N/OCc2ccc(F)cc2Cl)cc1OCc1ccccc1 reads 0.0% | 5.0%
Cc1c(Cl)cccc1NC(=O)c1noc2c1CCCC2 reads ? | 86.8%&52.9%[activator]

Carrying on:
SMILES	StopGo RLuc	StopGo FLuc
O=C(Nc1c(C(=O)Nc2ccccc2F)oc2ccccc12)c1cc2ccccc2o1	-3.7%	175.2%[activator]
CCc1ccc(NC(=O)CC2C(=O)N(c3ccc(Cl)cc3)C(=O)N2C2CCCC2)cc1 (stereo not given)	-3.6%	-22.1%
CCCCCCCCOc1cccc(OCC(=O)O)c1	3.3%	3.9%
Cc1sc(NC(=O)c2ccccc2)c(C(c2ccccc2)N2CCOCC2)c1C (stereo not given)	8.2%	146.7%[activator]
S=C(NCc1cccnc1)Nc1ccc(Br)cc1	?	12.8%
CCCOc1ccc(NC(=O)C(C)Oc2cc(C)cc(C)c2)c2cccnc12 (stereo not given)	-14.6%	2.6%
CC(NN)c1ccccc1 (stereo not given)	-13.9%[23.8 µM]	-18.3%[27 µM]
CCOC(=O)N1CCc2c(sc3c2c(=O)n(CCc2ccccc2)c(=O)n3Cc2ccc(F)cc2)C1	-14.9%	-9.4%
CCn1nnc2cc(C(=O)Nc3nc(-c4ccc5c(c4)CCC5)cs3)ccc21	?	?
CC(C)C(C)NC(=O)COc1ncnc2ccc(Br)cc12 (stereo not given)	0.4%	14.4%
Cc1[nH]c2ccccc2c1C(=O)C(=O)NCC(C)N1CCCC1 (stereo not given)	-15.8%	-17.6%
CC(C)=CCOc1ccc2c(-c3cc4ccccc4oc3=O)cc(=O)oc2c1	5.2%	-0.5%
O=Cc1cc(Br)cc(Cl)c1O	-1.3%	7.6%
CC(C)NC(=O)c1cc(-c2ccc(Cl)cc2)nc2ccccc12	-13.2%	0.0%
O=C(Nc1cc2cccc([N+](=O)[O-])c2oc1=O)c1ccccc1	-2.6%	135.8%[activator]
COC(=O)c1cc(Cc2ccccc2)ccc1O	-7.9%	16.7%
CC(C)c1ccc(NC(=O)C2CCCN2S(=O)(=O)c2cccc3nsnc23)cc1 (stereo not given)	?	?
O=C(Nc1ccccc1F)C1CCN(c2nc3ccccc3o2)CC1	-25.9%	-28.1%
O=C(Nc1ccccc1N1CCCCCC1)c1cncc(Br)c1	-12.8%	-7.7%
Cn1c(=O)c2c(ncn2CCC(=O)Nc2ccc(Cl)cc2F)n(C)c1=O	-1.5%	6.0%
COc1ccc(C(=O)COC(=O)c2ccc3c(c2)OCO3)c(OC)c1	-14.7%	34.7%[activator]
COC(=O)c1ccc(C)c(NC(=O)c2cnccn2)c1	-1.6%	3.1%
Cc1ccccc1NC(=O)CSc1nc(C2CC2)n(-c2ccccc2)n1	74.0%[activator]	2.3%
CCOC(=O)c1ccc(NC(=O)CSc2nnc(-c3ccccc3C)n2Cc2ccco2)cc1	?	?
Cc1ccc(C(=O)N(c2ccc(C)cc2)S(=O)(=O)c2ccc(Cl)cc2)cc1	7.8%	23.8%
COc1ccc(C)cc1NC(=O)COc1cc(=O)n(C)c2ccccc12	2.6%	-1.9%
CCCCCc1ccc(-c2ccc(C3CCC(CCC)CC3)cc2)nc1 (stereo not given)	10.5%	16.1%
Cc1ccccc1C(=O)Nc1nnc(S(=O)(=O)N(C)c2ccc(Cl)cc2)s1	-8.9%	-12.0%
CCCOC(=O)c1[nH]c2c(c1C)C(=O)CCC2	16.8%	0.5%
CCOC(=O)c1c(NC(=O)c2cc(-c3ccc(OC)c(OC)c3)on2)sc2c1CCCC2	-5.5%	-14.2%
O=C(O)CCCC(=O)Nc1cccc(C(=O)N2CCCCC2)c1	1.0%	-4.5%
CC(C)/C=N/NC(=O)c1ccc[n+]([O-])c1	-4.9%	11.1%
O=C(NCCc1ccc(Cl)cc1)C(=O)NCC(c1cccs1)S(=O)(=O)c1ccccc1 (stereo not given)	-14.2%	-14.5%
COc1ccc(CNC(=O)c2c(Nc3ccccc3C)sc(C(=O)c3ccccc3)c2N)cc1	25.3%	-6.6%
Cc1cccc(OCCN(C)C(=O)c2cc(=O)c3ccccc3o2)c1	41.6%[activator]	33.3%[activator]
Cc1cc(=O)n2c3ccccc3nc2n1CC(=O)c1ccc2ccccc2c1	12.0%	16.0%
Cc1cc(NC(=O)c2cc(-c3ccc(F)cc3)on2)nn1Cc1ccc(Cl)cc1	-12.6%	-6.9%
O=C(COc1ccccc1C(=O)Nc1ccccc1)NC1CCCC1	13.8%	30.3%[activator]
CCCCNc1nc(-c2ccc(NS(C)(=O)=O)cc2)cs1	0.0%	67.5%[activator]
O=c1oc2ccc(F)cc2cc1-c1nc(-c2cccs2)no1	-5.1%&-9.9%	26.1%&1.9%
CCCCCOc1c(Cl)cc(C(=O)N(Cc2ccc(C)o2)C2CCS(=O)(=O)C2)cc1Cl (stereo not given)	1.8%	-12.0%
CC(=O)c1ccc(NC(=O)CN(Cc2ccc3c(c2)OCO3)C2CCCC2)cc1	12.8%	1.1%
COc1ccc(NC(=O)CCc2c(C)c3ccc(OC)cc3oc2=O)cc1	3.3%	-3.3%
O=C(CSc1nc2ccccc2c(=O)n1CCCN1CCOCC1)c1ccc2ccccc2c1	-5.0%	-6.8%
CCc1cccc(NC(=O)CSc2ncc3c(n2)-c2ccc(Cl)cc2N(Cc2ccccc2)S3(=O)=O)c1	-12.2%	-13.9%
Cc1cc(Br)ccc1NC(=O)c1ccc2c(Cl)c3c(nc2c1)CCCC3	14.3%	0.0%
O=C(/C=C/c1ccc([N+](=O)[O-])cc1)OCC(=O)C12CC3CC(CC(C3)C1)C2	15.8%	141.5%[activator]
Cc1cc(C)c(CNCC(O)c2ccccc2)c(C)c1 (stereo not given)	-6.5%	?
COc1ccc(CCn2c(=O)c3cccnc3n(CC(=O)Nc3cccc(C)c3)c2=O)cc1OC	-21.2%	-5.0%
CN(Cc1cn(CC2CCCCC2)nn1)S(=O)(=O)c1ccccc1Br	20.0%	11.8%

Compound activity: PubChem, National Center for Advancing Translational Sciences (NCATS)
